VACV E9 pol inh: blocks vaccinia virus processive DNA synthesis; in vitro processive DNA synthesis, absorbance read-out; stronger effect = lower value; some inactives read as strong as hits; normalized absorbance, % (concentration not given with the values); 0.94% of 46,000 active;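 active = replicate mean up to 90% and picked by the depositor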;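 note: 100% = median of the test wells of a plate; 100 nL library stock went into each well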
* hit, by the source's call.

SMILES	VACV E9 pol inh
CC1=C(c2ccccc2)SC2=NCCN21	92.8
CCOC(=O)c1ccc(NC(=O)/C=C/c2cccs2)cc1	99.6
O=C1c2ccccc2C(=Nc2ccccc2)C1c1ccccc1 (stereo not given)	100.0
CCCc1n[nH]c2c1/C(=N\O)CC(c1ccccc1)C2 (stereo not given)	102.3
O=C(CSc1ncn[nH]1)OCN1C(=O)c2ccccc2C1=O	100.4
O=C(OCc1cnc(Cl)s1)c1ccc(Cl)cc1	95.1
O=S(=O)(NCC1CN(Cc2ccccc2)CN(Cc2ccccc2)C1)c1ccc(Cl)cc1	106.6
Cc1cccc(N=C2NC(=O)/C(=C3/C(=O)N(CC(=O)O)c4ccccc43)S2)c1C	100.2
CCN(c1cccc(C)c1)C(C(=O)NC1CCCC1)c1ccccc1 (stereo not given)	104.4
CC(C)(C)NC(=S)N1CCn2cccc2C1c1ccccc1F (stereo not given)	100.9
Cc1cc(N(Cc2cccc(Cl)c2Cl)C(=O)c2ccccc2)no1	104.8
Oc1ccc(CN2CCCC2)c2cccnc12	97.6
CN1C(=O)/C(=C\c2ccccc2)Sc2ccc(C(=O)NCc3cccs3)cc21	100.4
Cc1nn(-c2ccccc2)c(N)c1C1(O)C(=O)Nc2ccccc21 (stereo not given)	103.6
CCn1c(=O)c2cc(C(=O)N(C)Cc3ccco3)sc2c2ccccc21	102.9
O=C(O)c1cccc(Nc2nc(-c3ccccc3)c3ccccc3n2)c1	98.6
COc1cccc(CNC(C)(C)CO)c1OCc1ccc(Cl)cc1	100.9
CCOC(=O)c1cnc2ccc(OCC)cc2c1N(C)Cc1ccccc1	96.3
O=C(CCCn1c(=O)c2cccn2c2ccccc21)NCC1CCCO1 (stereo not given)	103.5
C/C(N)=N\S(=O)(=O)c1ccc(Cl)cc1	100.2
NC(=O)CSc1nc2ccccc2c(=O)[nH]1	100.7
Cc1onc(-c2ccccc2Cl)c1C(=O)NCC1COc2ccccc2O1 (stereo not given)	91.7
CCN(Cc1ccncc1)C(=O)c1cc2ccccc2oc1=O	102.9
Clc1cc(Cl)c2nc(Oc3cccc(N4CCOCC4)c3)sc2c1	95.6
CC1CCCCN1C(=O)Cn1ncc2c1-c1ccccc1OC2 (stereo not given)	98.4
O=C(NCc1ccccc1)C(C(=O)c1ccccc1)n1ccccc1=O (stereo not given)	98.4
CCN(CC)CCc1c(C)c2ccc(O)cc2oc1=O	86.5
CCCNC(=O)CCc1c(C)nc2cc(-c3ccccc3)nn2c1C	107.4
CS(=O)(=O)c1ccc(Br)cc1	100.8
Nc1nc2ccccc2n1Cc1ccccc1F	101.9
O=C(Cc1ccc(Cl)cc1)NCc1ccc2[nH]c3c(c2c1)CCCC3	103.7
Cc1ccc(NC(=O)C2C(=O)N(CCO)C3(C)CC2c2ccccc2O3)c(C)c1 (stereo not given)	107.9
OC(COc1ccccc1)CSc1nc2ccccc2o1 (stereo not given)	99.5
O=C(Nc1cccnc1)c1noc2c1CCCC2	100.6
COc1cc(OC)cc(C(=O)Nc2ccccn2)c1	97.9
CCCC(=O)Oc1ccc2oc(-c3ccc(OC)cc3)cc(=O)c2c1	100.0

Shown with each value named: entries from further up
smiles: OC(COc1ccccc1)CSc1nc2ccccc2o1 (stereo not given)
- VACV E9 pol inh = 99.5

smiles: O=C(Nc1cccnc1)c1noc2c1CCCC2
- VACV E9 pol inh = 100.6

Continued:
SMILES	VACV E9 pol inh
Cc1nnsc1C(=O)Oc1ccc(-c2n[nH]nc2C#N)cc1	101.0
COc1ccc2[nH]c3c(=O)n(CC(=O)N4CCN(c5ccc(F)cc5)CC4)c(=S)[nH]c3c2c1	99.5
O=C1NC(=O)C(C2(O)C(=O)c3ccccc3C2=O)C(=O)N1	95.7
Fc1ccc(C2c3cccn3CCN2C(=S)Nc2cccc(F)c2)cc1 (stereo not given)	99.6
O=C(Nc1ccc(Cl)cc1)c1snnc1-c1ccccc1	124.7
CC1CCCC(Nc2c(-c3ccc(Cl)cc3)nc3c(C#N)c[nH]n23)C1C (stereo not given)	94.2
CN(C)C(=S)NCCC1=CCCCC1	100.7
O=C(NCC1CCN(Cc2cccc(Cl)c2)CC1)Nc1ccc(Cl)cc1	99.4
COc1cccc(CNCC(C)O)c1OC (stereo not given)	100.9
FC(F)(F)c1ccccc1C1NCc2ccccc2-n2cccc21 (stereo not given)	99.6
O=C(NCc1cn2ccccc2n1)c1cccc(C(F)(F)F)c1	103.1
CC(C)(C)c1cc(/C=C(\C#N)C(N)=S)cc(C(C)(C)C)c1O	98.0
CC(C)Oc1cc(N)c(Cl)cc1Cl	105.4
COC(=O)/C(=C/c1ccc(OC(F)(F)F)cc1)NC(=O)c1ccccc1	91.4
Cc1ccc2oc(=O)c3cc(C(=O)Nc4ccc5c(C)cc(=O)oc5c4)sc3c2c1	103.7
CCN1C(=O)/C(=C/c2ccc(NC(C)=O)cc2)SC1=S	97.0
CCc1ccc(NC(=O)Cn2ncc3ccccc32)cc1	103.0
CCOC(=O)C(C)Sc1nc2c([nH]c3ccccc32)c(=O)n1-c1ccc(F)cc1 (stereo not given)	100.7
CCOc1nc(C)nc2c1sc(=S)n2C	100.4
CCCN(CCC)C1=C(C(=O)c2ccccc2)N(C)S(=O)(=O)c2ccccc21	99.6
COC(=O)Nc1ccc(SCC(=O)N(c2ccccc2)C(C)C)cc1	99.5
CCC(C)NC(=O)/C=C1\Sc2ccccc2NC1=O (stereo not given)	104.4
CCCCc1ccc(N2C(=O)C=CC2=O)cc1	100.8
Cc1ccc(CCCOC(=O)CN2CCOCC2)cc1	99.7
Cc1cc2cc(CNC(=O)COc3ccccc3)ccc2n1C	100.0
Nc1cc(Cl)ccc1Sc1ccccc1	101.2
CCN1CCN(C(=O)Cc2cccc3ccccc23)CC1	88.3
Cc1onc(-c2ccccc2Cl)c1C(=O)NCCOC12CC3CC(CC(C3)C1)C2	99.8
COC(=O)c1c(C(=O)OC)c2ccncn2c1Cl	112.1
O=C(O)/C=C/C(=O)NCc1ccccc1	99.7
Cc1ccc(-n2nc3c(c2NC(=O)C(C)(C)C)CSC3)cc1	98.9
CCOc1ccc(NC(=O)c2cn(CC(C)C)c(=O)c3c2c2ccccc2n3C)cc1	101.4
C=CCn1c(SCC(=O)c2ccccc2)nnc1-c1ccncc1	92.9
O=C(OC(c1ccccc1)c1nccc2ccccc12)c1ccco1 (stereo not given)	98.7
O=C(CSc1ncnc2ccccc12)NCc1ccccc1	100.5
O=C1CCC(C(=O)OCC(=O)C23CC4CC(CC(C4)C2)C3)N1 (stereo not given)	103.9
CC(C)COc1ccc2c(c1)c1c3c([n+](C)ccn32)CCC1	98.1
CCc1ccc(NC(=O)CSc2nc3ccccc3c(=O)n2CCCN2CCC(C)CC2)cc1	92.6
Cc1c(CCC(=O)NN)c(C)n2c(nc3ccccc32)c1C#N	83.9
NC(=O)c1ccc[n+](CC(=O)N2CCCCC2)c1	100.2
CNc1c(NS(=O)(=O)c2ccc(C)cc2C)c(=O)oc2ccccc12	101.9
Cc1ccc2c(c1)c(=O)c1c3n2CCN(CC#N)C3CC1 (stereo not given)	98.3
COC(=O)c1ccc(NC(=O)CC2Sc3ccc(C(F)(F)F)cc3NC2=O)cc1 (stereo not given)	99.9
Cc1cc2cc(CNC(=O)C3CCCC3)ccc2[nH]1	100.4
CCOc1ccc(-c2n[nH]c(C(F)(F)F)c2Oc2ccccc2)c(O)c1C	100.6
NC(=O)C1CCN(C(=O)Cn2ncc3c4ccccc4n(Cc4ccc(F)cc4)c3c2=O)CC1	101.4
O=C(CCc1cn(Cc2ccccc2)c2ccccc12)NCCc1ccc(Cl)cc1	106.5
CCOC(=O)c1c(C)oc2c1c(C(c1ccc(OC)cc1)N1CCOCC1)c(O)c1ccccc12 (stereo not given)	100.2
O=C(OCCS(=O)(=O)c1ccc(C(F)(F)F)cn1)c1ccc(Cl)c(Cl)c1	96.7
CC(C)(C)c1ccc(-c2nnc(-c3ccccc3NC(=O)/C=C\C(=O)O)o2)cc1	89.0
CC1SCC(=O)N(c2ccc(Br)cc2)C1=O (stereo not given)	88.3
S=C(c1cn(Cc2ccc(Cl)cc2)c2ccccc12)N1CCCC1	100.1
CC[n+]1ccc(C)c2cc(C(F)(F)F)ccc21	99.8
CCCCn1c(C)c(C(=O)O)c2cc(OC)ccc21	101.3
Fc1ccc(-c2cn3cc(I)ccc3n2)cc1	99.2
CC(NC(=O)Cn1nnc(-c2cccc(C(F)(F)F)c2)n1)c1ccccc1 (stereo not given)	104.7
Cc1sc(NC(=O)c2cccs2)c(C(N)=O)c1C	88.4
CCCCN1CCc2c(c3ccccc3n2Cc2ccccc2)C1	99.6
O=C(COC(=O)C1CCC1)NC12CC3CC(CC(C3)C1)C2	101.2
COC(CNC(=O)Cn1nc(Cc2ccncc2)c2ccccc2c1=O)OC	101.0
New compounds follow:
SMILES	VACV E9 pol inh
O=C(CCn1c(=S)[nH]c2ccsc2c1=O)NCCc1ccc(Cl)cc1	99.2
Cc1ccc(C(=O)NCC(=O)O)cc1S(=O)(=O)N1CCCCC1	100.2
CCCC1CCCCCC1NC(C)=O (stereo not given)	96.8
Cc1ccc(S(=O)(=O)c2c(O)c3ccc(C(=O)NCc4ccccc4Cl)cc3[nH]c2=O)cc1	85.0
Nc1c(Cl)cc(Cl)cc1C(=O)OCC(=O)N1CCCCC1	102.2
O=C(c1c(O)c2ccccc2oc1=O)C1CCC1	86.8
Cc1ccccc1Oc1ccc(S(=O)(=O)N2CCOCC2)cc1	98.9
COc1ccc(N/C=C(\C#N)c2nc(-c3ccc4c(c3)OCO4)cs2)cc1	100.2
N/C(=N\O)c1cn(CCOc2ccccc2Cl)c2ccccc12	100.7
c1ccn2cc(CN3CCOCC3)nc2c1	100.8
Cc1cc(=O)cc(C)n1-c1ccc2c(c1)nc(C)n2-c1ccccc1	94.8
CCCC(=O)Nc1nnc(SCC(=O)N2CCc3ccccc32)s1	100.1

10 entries from above, arranged by heavy-atom count, smallest number first:
SMILES	VACV E9 pol inh
CCCC1CCCCCC1NC(C)=O (stereo not given)	96.8
c1ccn2cc(CN3CCOCC3)nc2c1	100.8
O=C(c1c(O)c2ccccc2oc1=O)C1CCC1	86.8
Nc1c(Cl)cc(Cl)cc1C(=O)OCC(=O)N1CCCCC1	102.2
N/C(=N\O)c1cn(CCOc2ccccc2Cl)c2ccccc12	100.7
CCCCN1CCc2c(c3ccccc3n2Cc2ccccc2)C1	99.6
O=C(CCn1c(=S)[nH]c2ccsc2c1=O)NCCc1ccc(Cl)cc1	99.2
COc1ccc(N/C=C(\C#N)c2nc(-c3ccc4c(c3)OCO4)cs2)cc1	100.2
COC(CNC(=O)Cn1nc(Cc2ccncc2)c2ccccc2c1=O)OC	101.0
Cc1ccc(S(=O)(=O)c2c(O)c3ccc(C(=O)NCc4ccccc4Cl)cc3[nH]c2=O)cc1	85.0

Remaining list, next part:
SMILES	VACV E9 pol inh
Cc1oc2cc(O)ccc2c(=O)c1-c1ccc(Br)cc1	99.1
Cc1cc(C)c(C)c(C(=O)COC(=O)c2ccc(-n3c(C)ccc3C)cc2)c1C	100.5
N#CCC(=O)NC1CC1	100.8
O=C(NCC1(c2ccccc2)CCOCC1)c1ccc(Br)cc1	100.1
CCC1CCCCN1CCCNC(=O)c1ccc(Sc2ccc(C)cc2)c(NC(C)=O)c1 (stereo not given)	82.6
CC(C)(C)Nc1ncnc2c1cnn2-c1ccc(Cl)cc1	101.2
CC(C)CCNC(=O)c1nnc(Cc2ccc(Cl)cc2)o1	105.8
CC1(C)CC(=O)C2=C(C1)Nc1ccccc1N(C(=O)c1ccccc1)C2c1ccccc1 (stereo not given)	100.7
COc1ccc(CNCCC2(c3ccccc3)CCOC(C)(C)C2)cc1OC (stereo not given)	95.1
c1cc2c(cc1-n1nnnc1SCC1CC1)OCO2	100.2
C=C(C)C(=O)Nc1ccc(-c2nc3cc(NC(=O)C(=C)C)ccc3o2)cc1	95.3
O=C(COC(=O)CC1CC2CCC1C2)NCc1ccc(F)cc1 (stereo not given)	102.2
CC(C)(C)c1cc(C(=O)N(CCO)CCO)cc(C(C)(C)C)c1	87.3
Cn1c(/C(C#N)=N/O)nc2ccccc21	101.0
COc1ccc(/C=C2\Oc3ccccc3N(CC(=O)NC(C)c3ccccc3)C2=O)cc1 (stereo not given)	81.0
CC(C)(CO)NC12CC3CC(CC(C3)C1)C2	100.6
Cc1c(C=Nc2ccc(S(=O)(=O)N(C)C)cc2)c(O)n(C)c(=O)c1C#N	100.4
CCc1ccc2[nH]c(C(=O)NC(C)COC)cc2c1 (stereo not given)	95.2
O=c1[nH]c2cc(C(F)(F)F)ccc2n1-c1cc(C(F)(F)F)ccc1O	99.8
O=C(Nc1cscc1S(=O)(=O)c1ccccc1)c1ccccc1Cl	106.8
Cc1ccc(NS(=O)(=O)C(F)(F)F)cc1	106.0
Fc1ccc(CN2CCCN(Cc3ccc(F)cc3)C2c2cccnc2)cc1	105.4
COc1ccccc1NC(=O)CSc1nc2n[nH]c(C)c2c(=N)n1-c1ccc(C)c(Cl)c1	103.4
C=CCn1cnc2sc(-c3ccccc3)cc2c1=O	97.1
CSc1ccc(C=C2C(=O)c3ccccc3C2=O)cc1	101.8
O=C(NCC1(c2ccccc2)CCCC1)c1cc2c(s1)-c1ccccc1S(=O)(=O)C2	100.2
CC1(C)CC(CCC(=O)NC(=S)Nc2ccccc2Cl)C(=O)O1 (stereo not given)	100.1
C=CCc1cccc2cc(C(=O)N3CCN(c4ccccc4F)CC3)c(=O)oc12	100.9
Cc1ccc(-n2c(C)csc2=N)cc1	103.7
C=CCC(NCc1ccco1)c1ccc(N(C)C)cc1 (stereo not given)	96.6
CCCCN1N=C(C)CC1=O	99.9
CSc1nc2ccc(N=Cc3ccc(Sc4nnnn4-c4ccccc4)o3)cc2s1	98.9
CCCc1nc2ccccc2c(C(=O)OCC(N)=O)c1CC	92.5
Cc1nnc2n1N=CC=C(c1ccccc1)S2	102.7
CCN(CC)c1ccc2c(=O)[nH][nH]c(=O)c2c1	100.4
O=c1[nH]c2ccc(N=Cc3ccc(C#Cc4ccccc4)cc3)cc2o1	101.5
O=C(CSC1=NCCS1)NC1CC1	102.1
Cc1cc2ccccc2n1CCNC(=O)Cc1cccs1	99.0
Cc1ccc2oc3nc(N)c(-c4ccc(Cl)cc4)cc3c(=O)c2c1	99.8

A portion of the library, so the mix of outcomes need not match the whole.
